VDR inh: vitamin D3 receptor (human) inhibition; VDR-SRC2-3 peptide fluorescence polarization, 2 h; AID 504847; Potency, µM, for inactives: max response, negative = inhibition, hits mostly inhibitors; P11473; 400,000 compounds, 0.93% hits; active = well fitted inhibition curve with a large enough effect; inconclusive = small, poorly fitted or top-dose-only effect, or another doubt; inactive = no such curve, though single readings can be large or run the other way; note: series mostly up to about 120 µM
Target sequence (P11473 whole entry, looked up): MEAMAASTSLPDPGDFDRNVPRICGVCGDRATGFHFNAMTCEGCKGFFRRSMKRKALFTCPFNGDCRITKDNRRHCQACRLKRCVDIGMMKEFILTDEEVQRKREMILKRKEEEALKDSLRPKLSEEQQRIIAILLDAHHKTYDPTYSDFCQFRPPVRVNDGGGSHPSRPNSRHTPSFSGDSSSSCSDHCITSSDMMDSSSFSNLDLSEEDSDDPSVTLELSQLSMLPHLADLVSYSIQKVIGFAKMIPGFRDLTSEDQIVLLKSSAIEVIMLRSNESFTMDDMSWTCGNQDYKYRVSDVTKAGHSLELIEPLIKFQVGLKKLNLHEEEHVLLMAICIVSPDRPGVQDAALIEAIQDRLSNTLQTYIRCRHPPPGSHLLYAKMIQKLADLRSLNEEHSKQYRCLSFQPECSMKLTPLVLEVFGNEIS
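Compounds are added to VDR with labelled SRC2-3 coactivator peptide and held 2 h at room temperature. Inhibition of the VDR–peptide interaction is then read as a change in fluorescence polarization.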
The depositor's hits bear a star; u = inconclusive. % is set by controls: 0 for no effect and ±100 for the full control effect; potency is the fitted concentration of half-maximal effect. This is a subset (hit frequency here may not be typical).

SMILES | VDR inh
CCN1CCN(CCNC(=O)c2ccc(CS(=O)c3ccc(Cl)cc3)o2)CC1 (configuration not stated) | -11%
O=C(NCCCN1CCCCC1)c1ccc2c(c1)sc1nc(-c3ccc(F)cc3)cn12 | -6%
COCc1cc(C)[nH]c(=O)c1C(=O)NC12CC3CC(CC(C3)C1)C2 | 8%
CCN(CC)c1ccc(C(=S)N2CCN(c3ccccc3)CC2)cc1 | -7%
Cc1ccc(N2CC(C(=O)NCc3ccc4c(c3)OCO4)CC2=O)cc1C (configuration not stated) | 16%
Cc1ccc(S(=O)(=O)NCC(C)n2nc(C)nc2C)cc1 (configuration not stated) | -23%
Cc1ccccc1NC(=O)CSc1nnc(CNC(=O)c2ccco2)n1C | 9%
Cc1c(Cl)c([N+](=O)[O-])nn1CC(=O)NCc1cccs1 | 9%
CN(Cc1ccccc1)Cc1nc2scc(-c3ccccc3)c2c(=O)[nH]1 | -11%
O=C(Nc1ccccc1)Nc1ccc(-n2ccc(C(F)(F)F)n2)cc1 | -17%
CC(=O)c1ccc(OCCCC(=O)Nc2cc(S(=O)(=O)N(C)C)ccc2C)cc1 | -6%
COC(=O)[C@]1(C)N[C@H](CN(C)S(=O)(=O)c2ccccc2)[C@@H]2C(=O)N(C)C(=O)[C@@H]21 | -21%
CCOC(=O)c1cnn(-c2ccccc2)c1N | 10%
Cc1nc(SCC(=O)NC(C)c2ccccc2)c2oc3ccccc3c2n1 (configuration not stated) | -1%
CCCCCC(=O)N1CC2(CC(c3cccc(NC(=O)c4ccccc4)c3)=NO2)C[C@@H]1C(N)=O (some centres not stated) | -17%
Cc1nc(-c2ccc(C(=O)Nc3ccccc3F)cc2)cs1 | -13%
CCOC(=O)c1cc(NC(=O)c2ccc(C)cc2)c(=O)n2c1oc1ccccc12 | 4%
Cc1ccc(NS(=O)(=O)c2ccc(NC(=O)C3CCCO3)cc2)cc1 (configuration not stated) | -12%
Cn1c2c(c(=O)n(C)c1=O)C(NS(=O)(=O)c1ccccc1)(C(F)(F)F)C(=O)N2 (configuration not stated) | 16%
CCCNc1c(NS(=O)(=O)c2ccc(Br)cc2)c(=O)oc2ccccc12 | 15%
CN(C)CCNC(=O)c1[nH]nc2c1CCc1ccccc1-2 | 1%
COc1cc2c(cc1OC)C(C)N(C(=O)c1cc3c(s1)-c1ccccc1OC3)CC2 (configuration not stated) | -2%
O=C(Nc1ccc(S(=O)(=O)N2CCc3ccccc3C2)cc1)c1ccccc1 | -1%
CC(C)c1nnc(NC(=O)CSc2nnc(-c3ccco3)o2)s1 | -11%
COC(=O)c1c(NC(=O)C2CCCO2)sc2c1CCC2 (configuration not stated) | -7%
Cc1ccc(S(=O)(=O)NCCC(=O)Nc2cc(F)ccc2C)cc1C | -1%
CC1CC(=O)N(c2ccc(Br)cc2)C(=O)C1 | -18%
COc1ccc(S(=O)(=O)N2CCOCC2)cc1NC(=O)CSc1nnc(C2CC2)n1C1CC1 | 18%
O=C(COc1ccccc1[N+](=O)[O-])Nc1ccc2c(c1)CCC2 | 3%
COc1ccc(CNC(=O)CSc2n[nH]c(C)c2[N+](=O)[O-])cc1 | -6%
CC(=O)Nc1nnc(SCC(=O)NCC2CCCO2)s1 (configuration not stated) | -18%
O=c1oc2ccccc2cc1-c1cn2cc(Cc3cc(Cl)ccc3Cl)sc2n1 | -11%
COc1ccccc1C(=O)NCCC(=O)NCC(C)(C)N1CCOCC1 | -14%
COc1cc(/C=C/C(=O)O)cc(S(=O)(=O)Nc2cc(C(F)(F)F)ccc2N2CCOCC2)c1OC | 0%
CSc1nc2nc(C)c(CCC(=O)OCC(=O)Nc3ccc(F)cc3)c(C)n2n1 | -1%
Cc1cc(C)cc(N2CC(C(=O)NC3CCCCC3)CC2=O)c1 (configuration not stated) | u
Cc1c(-c2nnc(SCC(=O)Nc3ccc(Cl)cc3)o2)nnn1-c1ccc(F)cc1 | 6%
Cc1csc(NC(=O)CSC2=NCCS2)n1 | -11%
COc1ccc(C(CC(=O)Nc2ccc(F)cc2)c2ccccc2)cc1 (configuration not stated) | 19%
CC(C)(CSc1ccccn1)NS(=O)(=O)c1ccc(Cl)cc1 | 9%
CC(C)C(=O)Nc1ccc(-c2nc3ccccc3c(=O)o2)cc1 | 7%
Cc1ccc(NCc2nnc(SCC(=O)N(Cc3ccccc3)C(C)(C)C)o2)c(C)c1 | 11%
CCCn1c(CC)nc([N+](=O)[O-])c1Sc1ccc(F)cc1 | 1%
Cc1cc(C)cc(NC(=O)C(=O)NCc2ccccn2)c1 | -12%
O=C(Nc1ccccc1)Nc1ccc(C(F)(F)F)cn1 | -20%
CC(=O)Nc1ccc(S(=O)(=O)N(CCO)Cc2ccccc2)cc1 | -3%
CCc1ccc(OCCCC(=O)Nc2nccs2)cc1 | 18%
CCc1ccccc1NC(=O)C(Cc1cccc(OC)c1OC)c1nn[nH]n1 (configuration not stated) | -4%
Cc1cc(C)nc(NS(=O)(=O)c2ccc(NC(=O)COc3ccccc3)cc2)n1 | 16%
Cc1cc(C)cc(NC(=O)C(C)N2C(=O)c3ccccc3C2=O)c1 (configuration not stated) | 10%
CC(=O)Nc1ccc(NC(=O)c2ccccc2Nc2ccccc2)cc1 | 1%
CN(CC(=O)Nc1cccc(F)c1)C(=O)c1cc(S(=O)(=O)N(C)C)ccc1N1CCCC1 | -7%
CSc1ccc(Cl)c(C(=O)Nc2ccc(N3CCOCC3)cc2)c1 | -2%
CN(c1ccccc1)S(=O)(=O)c1ccc(C(=O)NCc2ccccn2)cc1 | -16%
Cc1nc(NCc2ccccc2)c(C(N)=O)c2c1COC(C)(C)C2 | -3%
COc1ccc2[nH]c(=O)c(CN(C(=O)c3cccc(Cl)c3)c3cccc(C)c3)cc2c1 | 12%
CC(=O)Nc1ccc(NC(=O)CSc2ccc(-c3ccc4c(c3)OCO4)nn2)cc1 | -2%
CCc1c(C(=O)NNC(=S)NCC(C)C)csc1C | 9%
Cc1ccccc1OCC(=O)NNC(=O)c1ccc2c(=O)n3c(nc2c1)CCC3 | -11%
COC(=O)CN1C(=O)[C@H]2[C@@H](c3ccc(C)o3)N3C(=O)CN(CCO)C(=O)[C@@]3(Cc3ccccc3)[C@H]2C1=O | -6%

Carrying on.
SMILES | VDR inh
CCOC(=O)Cc1csc(NC(=O)CSc2nnc(C(C)C)n2C)n1 | 7%
COc1ccc(NC(=O)C(C)N2C(=O)c3ccccc3C2=O)c(OC)c1 (configuration not stated) | -6%
O=C(NCCC1CCCCN1S(=O)(=O)c1cccs1)C(=O)Nc1ccccc1 (configuration not stated) | 14%
CCCC[C@@H]1CCCO[C@@](C(=O)NCc2ccccc2)(C(F)(F)F)C1 | u
Cc1ccccc1NC(=O)CNC(=O)Cc1cccc2ccccc12 | -13%
O=C(CCc1nc2ccccc2c(=O)[nH]1)Nc1nnc(SCc2ccc(Cl)cc2)s1 | 0%
CCOC(=O)C1=C(C)N(C[C@@H]2CC[C@@H](Cc3ccc(-c4ccccc4)cc3)O2)C(=O)NC1c1cccc2ccccc12 (some centres not stated) | 9%
O=C(NCc1ccccn1)C(=O)NCC1OCCCN1S(=O)(=O)c1ccc(F)cc1 (configuration not stated) | -9%
CC(C)Cn1c(=S)[nH]c2cc(C(=O)O)ccc2c1=O | 5%
CC(C)(C)NS(=O)(=O)c1ccc(NS(C)(=O)=O)cc1 | 2%
O=S(=O)(c1ccc(F)c(F)c1)N1CCCc2ccccc21 | -27%
OCc1nc2ccccc2n1CCc1ccccc1 | -11%
CC(=O)c1ccc(OCc2cc(C(=O)N3CCN(c4ccccc4)CC3C)no2)cc1 (configuration not stated) | -10%
O=C1C(Cc2ccccc2)Nc2ncnc(N3CCCCC3)c2N1Cc1ccc(Cl)cc1 (configuration not stated) | -10%
CCCCOc1ncnc2c1[nH]c1ccc(OCC)cc12 | 10%
CCn1cnc2sc(C(=O)Nc3ccccc3OC)c(C)c2c1=O | -8%
O=C1CCC(C(=O)NCCN2C(=O)S/C(=C\c3cccnc3)C2=O)=NN1 | -1%
CCCCSC(=S)N(C)C1CCS(=O)(=O)C1 (configuration not stated) | 1%
COc1cc(Nc2nc(SCC#N)nc3ccccc23)cc(OC)c1OC | -12%
Cc1ccc2nc(NC(=O)CSCC(=O)Nc3cc(C)on3)sc2c1 | -13%
CCCN1C(=O)C2(C(C(=O)c3ccc(C)o3)=C(O)C(=O)N2CCCN2CCOCC2)c2ccccc21 (configuration not stated) | -5%
COc1cc(OC)c2c(c1C(CCN1CCCC1)c1ccc(N(C)C)cc1)OC(=O)CC2c1ccc(N(C)C)cc1 (configuration not stated) | 4%
CCOC(=O)/C(=N\Nc1cc(Cl)ccc1Cl)N1CCN(C)CC1 | 2%
CCOc1ccc(NC(=O)Cn2c(=O)cc(C)c3c(C)nn(-c4ccc(CC)cc4)c32)cc1 | 6%
O=C(ON=C1CCN(S(=O)(=O)c2ccccc2)CC1)c1ccc(F)cc1 | 11%
CC[C@]12c3[nH]c4ccccc4c3CCN1C(=O)C(CC(=O)NCCCN(C)C)C[C@@H]2C(=O)N1CCN(C(=O)c2ccco2)CC1 (some centres not stated) | -7%
O=C(CN1CCCCC1)Nc1ccccc1Cl | -3%
CC(Sc1nc2ccccc2[nH]1)C(=O)Nc1ccccc1F (configuration not stated) | 8%
O=C1CC2(CCN(C(=O)COc3ccc(Cl)cc3)CC2)Oc2ccccc21 | -1%
C=CCn1c(SCC(=O)c2cc(C)n(Cc3cccs3)c2C)nnc1-c1ccncc1 | -2%
COc1ccc(CC(=O)NNC(=O)CN(C)S(=O)(=O)c2ccc(Cl)cc2)cc1OC | 18%
CCN1CCN(c2nc3c(C)cccn3c(=O)c2/C=C(\C#N)C(=O)NCCCOC)CC1 | -11%
CCCn1nc(C(=O)NCc2ccc3c(c2)OCO3)c2ccccc2c1=O | -2%
Fc1ccccc1N1CCN(c2nnnn2-c2ccccc2)CC1 | 14%
Cc1cc(N2CC(C(=O)NCc3cccnc3)CC2=O)ccc1C(C)C (configuration not stated) | -15%
CCc1cc2c(=O)c(-c3nc4ccccc4n3C)c(C)oc2cc1OC(C)=O | -13%
NC(=S)N/N=C1\CC(n2nnnc2-c2ccccc2)C2COC1O2 (configuration not stated) | 11%
C=CCNC(=S)NC(=O)c1oc2ccccc2c1C | -10%
CC1CN(/C=C/C(=O)C(F)(F)F)CC(C)O1 (configuration not stated) | 17%
CCOc1ccccc1-n1nnnc1SCC(=O)OC | -24%
CCOC(=O)/C=C1\SCC(=O)N1CC(=O)NC1CCCCC1 | -2%
CC1CCN(c2ccc(C(=O)O)cc2N)CC1 | -3%
Cc1ccc(S(=O)(=O)NCc2ccccn2)c(C)c1C | 7%
COc1ccc(-c2noc(-c3cccnc3N3CCN(c4ccc(OC)cc4)CC3)n2)cc1 | 10%
CC(c1ccccc1)N(CCC(c1ccccc1)C1CCOC(C)(C)C1)C(=O)c1ccco1 (configuration not stated) | 7%
C/C(=C\C(=O)c1ccc(Cl)s1)N(C)C | -10%
O=C(Oc1ccccc1[N+](=O)[O-])c1cccnc1 | -22%
O=C(Nc1cccnc1Oc1ccc(Cl)cc1)c1cccc2ccccc12 | -10%
Cc1ccc(-n2c(C)cc(C(=O)COc3cccnc3[N+](=O)[O-])c2C)cc1 | -5%
CCNC(=S)N1CCN(S(=O)(=O)/C=C/c2ccccc2)CC1 | -23%
Cc1ccc(C)c(N2CCN(C(=O)C3CCN(c4nc5ccc(C)cc5[nH]4)CC3)CC2)c1 | 1%
COc1ccc(C2=NOC(Cn3nc(C(=O)NCc4cccc(Br)c4)cc3-c3ccccc3)C2)cc1 (configuration not stated) | -6%
Cc1cc(C)cc(Oc2ncnc3c2ncn3Cc2c(Cl)cccc2Cl)c1 | -4%
Brc1ccc(-c2cn3cc(Cc4ccccc4)sc3n2)cc1 | 2%
COc1ccc(Cl)cc1NC(=O)CN1C(=O)COc2ccc(S(=O)(=O)NC3CCCC3)cc21 | 14%
COCCc1nc2ccc(C(=O)N(C)Cc3cccc(-n4cccn4)c3)cc2o1 | -9%
NC(=O)c1ccc(NCC2COc3ccccc3O2)c([N+](=O)[O-])c1 (configuration not stated) | 18%
CCNc1nc(NCC)n2c(SCc3nc4ccccc4c(=O)[nH]3)nnc2n1 | 11%
COC(=O)C1(C(O)C(=O)c2ccc(C)cc2C)CCCCC1 (configuration not stated) | -13%
Cc1cccc(-c2noc(CN(C(C)C)S(=O)(=O)c3ccc(F)cc3)n2)c1 | 6%
Clc1cccc(-c2nnc(SCc3nc4ccccc4[nH]3)n2Cc2ccco2)c1 | -15%

Structures shown so far with two or more sulfur atoms (14):
SMILES | VDR inh
CC(C)c1nnc(NC(=O)CSc2nnc(-c3ccco3)o2)s1 | -11%
COc1ccc(S(=O)(=O)N2CCOCC2)cc1NC(=O)CSc1nnc(C2CC2)n1C1CC1 | 18%
CC(=O)Nc1nnc(SCC(=O)NCC2CCCO2)s1 (configuration not stated) | -18%
Cc1csc(NC(=O)CSC2=NCCS2)n1 | -11%
CC(C)(CSc1ccccn1)NS(=O)(=O)c1ccc(Cl)cc1 | 9%
CCc1c(C(=O)NNC(=S)NCC(C)C)csc1C | 9%
CCOC(=O)Cc1csc(NC(=O)CSc2nnc(C(C)C)n2C)n1 | 7%
O=C(NCCC1CCCCN1S(=O)(=O)c1cccs1)C(=O)Nc1ccccc1 (configuration not stated) | 14%
O=C(CCc1nc2ccccc2c(=O)[nH]1)Nc1nnc(SCc2ccc(Cl)cc2)s1 | 0%
CC(C)(C)NS(=O)(=O)c1ccc(NS(C)(=O)=O)cc1 | 2%
CCCCSC(=S)N(C)C1CCS(=O)(=O)C1 (configuration not stated) | 1%
Cc1ccc2nc(NC(=O)CSCC(=O)Nc3cc(C)on3)sc2c1 | -13%
C=CCn1c(SCC(=O)c2cc(C)n(Cc3cccs3)c2C)nnc1-c1ccncc1 | -2%
CCNC(=S)N1CCN(S(=O)(=O)/C=C/c2ccccc2)CC1 | -23%

High-throughput results (PubChem)
